Screens as filed in PubChem.
Rango-impB inh – inhibitors of Rango-importin beta complex formation | Q14974 | Rango CFP/YFP FRET sensor + importin beta, 45 min | Potency, µM (highest dose often 92.2 µM), inactives show at the top dose inhibition of complex formation | hit rate 0.031% among 340,000 | AID 540263; active = rising FRET ratio curve, often small or poorly fitted; inconclusive = mostly compound fluorescence or quenching in the first reads; inactive = flat curves in all reads;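 also: potency is read from the fitted curve at half-maximal effect; 0% = DMSO wells and 100% = buffer wells lacking importin beta; nearly all actives have a fitted effect of over 15% in size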
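FRET biosensor Rango (snurportin 1 IBB between N-terminal EYFP and C-terminal Cerulean), 50 nM in PBS/1 mM DTT/0.02% Tween-20/0.1% BSA, preincubated 5 min RT with compound; 0.125 microM importin beta added, 45 min RT, CFP/YFP FRET ratio read.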
miR-21 reporter – miR-21 reporter, rising signal; 340,000 tested, under 10 active; Potency, µM (highest dose often 38.3 µM), for inactives: at the highest dose reporter change, positive = more light; HeLa miR-21 FLuc reporter, luciferase, 48 h; active = well fitted rising curve with a large enough effect; inconclusive = small, poorly fitted or top-dose-only effect; inactive = no such curve, though single readings can be large or run the other way;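 also: % of control where 0% means no effect; miR-21 action dims this reporter so a rising signal means less miR-21 action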
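Using DMEM plus 10% FBS, HeLa miR-21-FLuc cells are incubated with test compounds (final up to about 40uM) for 48 hours; firefly luciferase signal is then imaged following reagent-mediated lysis.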
GLA inh pH 4.5 – inhibitors of human alpha-galactosidase A at pH 4.5; P06280; 230,000 tested, under 10 active; purified enzyme, 4-MU-alpha-Gal fluorescence, pH 4.5; activity change, negative = inhibition, % at 105 µM; inconclusive = small, poorly fitted or top-dose-only inhibition, or a rising curve; inactive = flat fitted curve, though single readings scatter; no compound was filed as active;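 also: 0% = full activity with enzyme and -100% = basal without enzyme; dose as in the result columns while the protocol names 77 µM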
Target sequence (P06280 whole entry, looked up): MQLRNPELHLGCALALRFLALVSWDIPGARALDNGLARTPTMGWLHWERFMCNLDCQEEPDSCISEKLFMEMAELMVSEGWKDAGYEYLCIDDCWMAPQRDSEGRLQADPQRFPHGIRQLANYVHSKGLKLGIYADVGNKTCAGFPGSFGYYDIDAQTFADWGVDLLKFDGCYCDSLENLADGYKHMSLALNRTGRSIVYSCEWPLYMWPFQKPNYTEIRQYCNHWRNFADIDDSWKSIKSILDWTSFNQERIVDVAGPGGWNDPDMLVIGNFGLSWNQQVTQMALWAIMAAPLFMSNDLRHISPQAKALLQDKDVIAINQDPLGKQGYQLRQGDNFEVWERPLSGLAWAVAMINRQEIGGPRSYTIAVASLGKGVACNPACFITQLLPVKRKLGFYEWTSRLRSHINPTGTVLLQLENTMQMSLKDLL
Rango dissoc inh – prevents RanGTP from dissociating the Rango-importin beta complex | O95149+P62826 | Biochemical FRET Rango-importin beta, RanGTP-induced dissociation | Potency, µM (titrated, usually from 46.1 µM), for inactives: at the top dose activity change, negative = inhibition | hit rate 0.071% among 340,000; active means falling FRET ratio curve, often poorly fitted, with flat reads before Ran was added; inconclusive means other falling curves, or compound fluorescence or quenching; inactive means flat or rising ratio curve;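 also: potency is read from the fitted curve at half-maximal effect; % of control where 0% means no effect; nearly all actives have a fitted effect of over 45% in size; -100% = wells without RanGTP and RCC1; the record marks most hits as doubtful in a second field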
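FRET read at 45 min, room temperature: inhibitors block the CFP/YFP signal rise when RanGTP (0.6 uM Ran, 2 mM GTP, 0.2 uM RCC1) frees Rango (0.1 uM) from importin beta (0.25 uM). Pre-read after 5 min compound exposure flags interference.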
The depositor's hits bear a star; ? = inconclusive; . = not tested or not shown; & = joins results of further samples. Some of the compounds tested, so the mix of outcomes need not match the whole.

Under each structure – Rango-impB inh, miR-21 reporter, GLA inh pH 4.5, Rango dissoc inh
COCCSc1nc2c(c(=O)[nH]c(=O)n2C)n1Cc1cccc(C)c1
  1.5%, -17.5%, -5.1, -4.1%
CCCc1cc(=O)[nH]c(SCC(=O)Nc2ccc(S(=O)(=O)N3CCCC3)cc2)n1
  -1.0%, ., ., 3.8%
Cc1ccc(C(=O)OCC(=O)Nc2cc(F)ccc2F)cc1NC(=O)c1ccco1
  -0.2%, -0.9%, -10.2, 15.8%
COC(=O)c1ccc(CNC(=O)C(NC(=O)c2ccco2)C(C)C)cc1 (stereo not drawn)
  0.1%, -1.3%, ., -0.5%
COC(=O)c1c(C)[nH]c(O)c1C=Nc1ccc(C#N)cc1
  ?, -23.1%, -25.3, -11.4%
Cc1ccccc1-c1nc2ccccc2c(=O)n1/N=C/c1ccccc1[N+](=O)[O-]
  -5.4%, -6.4%, 4.8, ?
CCN(C(=O)CCc1ccccc1)C1CCCCC1
  1.3%, 0.2%, ., 4.0%
COCCN1C=C2C(=O)C(C)(OC(=O)CCC(=O)OC)C(=O)C=C2C=C1C1CC1 (stereo not drawn)
  ?, -0.8%, 6.6&-13.3, ?
CC1CCN(C(=O)C2CCN(S(=O)(=O)c3ccc4c(c3)CC(C)N4C(=O)C3CC3)CC2)CC1 (stereo not drawn)
  2.2%, 0.5%, ., 9.0%
CCN1CCN(C(=O)C(=O)c2cn(CC(=O)N(CC)CC)c3ccccc23)CC1
  -0.5%, -10.8%, ., -10.2%
Cc1ccc(NC(=O)c2ncn(CCCNCCCN3CCCC3=O)n2)cc1C
  -2.1%, ., ., 14.8%
Cc1occc1C(=O)NNC(=O)CN1C(=O)NC2(CCCCC2)C1=O
  -2.6%, ., ., 0.6%
COc1ccc(CCc2nnc(CCC(=O)NCc3cnn(-c4ccccc4C)c3)o2)cc1
  0.4%, -5.4%, 9.0, 0.9%
C=CCn1c(SCC(=O)Nc2ccc3c(c2)OCO3)nnc1-c1ccccc1OC
  -0.5%, -13.7%, -10.8, -4.2%
CCCc1nnc(SCC(=O)N2CCOCC2)n1Cc1ccco1
  5.2%, -1.6%, 3.1, 0.1%
O=C(CN1C(=O)CC(c2ccco2)Sc2ccccc21)NCC1CCCO1 (stereo not drawn)
  -1.3%, 1.3%, -5.7, -10.3%
Cc1ccccc1N1C(=O)C(Cl)=C(N2CCCCCC2)C1=O
  ?, -2.7%, -2.0, ?
Cc1ccc(C(=O)C[n+]2ccc(Cc3ccccc3)cc2)cc1
  ?, 29.9%, -0.7, ?
Cc1ccc(C(=O)C2Oc3ccccc3C3CC(c4ccc(C)cc4)=NN23)cc1 (stereo not drawn)
  ?, -43.8%, 2.8, 12.0%
CCOC(=O)c1sc(-c2ccc(F)cc2)cc1NC(=O)Nc1ccccc1OC
  0.3%, -4.3%, 1.2, -1.4%
COCCn1cnnc1SCC(=O)Nc1cccc(S(=O)(=O)N2CCCCCC2)c1
  1.0%, -2.7%, 1.4, 5.9%
CCOC(=O)C(C)n1ncn2cccc2c1=O (stereo not drawn)
  -0.7%, 3.0%, -4.7, -11.3%
Cc1ccccc1COC(=O)CCCC1=NS(=O)(=O)c2ccccc2N1
  -0.4%, -0.2%, ., -13.3%
NC(=O)C1CCN(C(=O)c2ccc(NS(=O)(=O)c3ccc(F)cc3)cc2)CC1
  -1.6%, ., ., -14.9%
COc1cccc(CN2CCNC(=O)C2CC(=O)NCC(C)(C)N2CCOCC2)c1OC (stereo not drawn)
  ?, -0.3%, ., 20.5%
CCC1CCC(c2nnc(-c3ccc(Br)cc3)o2)CC1 (stereo not drawn)
  4.9%, -18.0%, 1.0, 6.1%
COc1cccc(CN(C)C(=O)CSc2nc3ccccc3[nH]2)c1OC
  -0.3%, -15.2%, ., -0.5%
CC(C)CCN1C(=O)c2ccc(C(=O)NCc3ccccn3)cc2C1=O
  1.6%, ., ., -2.1%
COc1c(Cl)cc(Cl)cc1CNCc1ccccc1
  -0.9%, -13.2%, 5.4, -3.9%
Cc1ccc(-c2noc(CC(=O)c3ccc([N+](=O)[O-])cc3)n2)cc1
  1.5%, ., ., 8.2%
CCOC(=O)NC(CC(=O)O)c1ccc(OC)cc1 (stereo not drawn)
  1.0%, -2.1%, 0.8, ?
CCCc1cnc(N2CCN(C(=O)c3ccccc3)CC2)nc1
  2.0%, 3.1%, ., 21.8%
Cc1ccc(SCCC(=O)OCC(=O)Nc2ccc(S(N)(=O)=O)cc2)cc1
  -3.0%, -4.9%, -0.8, 0.9%
CC(NC(=O)Nc1ccccc1Cl)c1ccc2c(c1)OCO2 (stereo not drawn)
  0.5%, -4.1%, ., -2.1%
COc1ccc(/C=C/C(=O)N[C@H](C(=O)O)C(C)C)cc1
  -2.5%, 1.8%, -0.5, 1.6%
C[n+]1cccc(/C=N/Nc2nc(Cl)c(C#N)c(Cl)c2Cl)c1
  ?, 3.7%, -10.4, ?
CC(C)(C)OC(=O)N1CCC[C@H]1C(=O)Nc1ccc(Br)cc1
  0.4%, 2.4%, ., 7.1%
O=C(Nc1cccc(F)c1)NC1CCCCC1
  -0.2%, -18.6%, -12.2, -11.2%
CC(=O)N=c1ncn(CC(COC(C)=O)OC(C)=O)c2nc[nH]c12 (stereo not drawn)
  -0.9%, -5.3%, 7.8, 0.9%
Cc1ccc(C)c(N2N=C(C(=O)Nc3ccccc3N3CCCC3)CCC2=O)c1
  0.2%, 13.6%, ., -5.1%
CN(CCNC(=O)CCNC(=O)Cn1ccc2ccccc2c1=O)Cc1ccccc1
  3.9%, 0.2%, -8.1, 9.5%
C=CCc1cccc2cc(C(=O)O)c(=O)oc12
  -1.6%, -7.8%, -1.2, 7.7%
Cc1cccc(NC(=O)CC2c3ccccc3Oc3ccccc32)c1
  1.6%, 0.5%, 0.7, 7.7%
Cc1c(/C=N/O)sc2ccccc12
  -2.3%, -13.2%, 2.4, 0.0%
NC(=O)NNC1=Nc2cccc3cccc1c23
  ?, 3.3%, -12.0, -21.1%
O=C(NCC(c1ccco1)N1CCCC1)c1sc2cc(F)ccc2c1Cl (stereo not drawn)
  -1.4%, ., ., -9.1%
Cc1nn(Cc2nnc(SCC(=O)Nc3cccc(C(F)(F)F)c3)n2C)c(C)c1[N+](=O)[O-]
  0.5%, 0.8%, 2.7, 5.6%
CCOC(=O)N1CCN(C(=O)CSCC(=O)Nc2nc(-c3cccs3)cs2)CC1
  -0.8%, 0.1%, -12.6, -3.8%
O=C(O)CSc1nc(C(F)(F)F)cc(=O)n1-c1ccccc1
  -0.4%, -1.9%, 8.4, 1.8%
Cc1cc2ccccc2n1CCNC(=O)c1cccs1
  ?, 16.7%, 0.1, ?

Additional entries follow.
Under each structure – Rango-impB inh, miR-21 reporter, GLA inh pH 4.5, Rango dissoc inh
Cc1cc(Cl)ccc1OCC(=O)NCCCN1CCOCC1
  -1.3%, -1.5%, 2.4, -7.4%
CC(=O)N1CCN(C(=O)c2ccc(Oc3ccccc3)cc2)CC1
  1.7%, -0.2%, -5.3, -1.3%
Cc1cc(N/N=C/c2ccc(O)cc2O)c2ccccc2n1
  0.1%, -11.7%, ., 5.9%
CCCCN1C(=O)NC(NS(=O)(=O)c2ccc(N)cc2)(C(F)(F)F)C1=O (stereo not drawn)
  0.8%, -0.1%, -7.5, 5.5%
CC1CCN(S(=O)(=O)c2cccc(C(=O)Oc3ccc([N+](=O)[O-])cc3)c2)CC1
  -3.9%, -9.3%, -3.1, -14.7%
O=C(Nc1ccccc1F)c1ccc(Br)o1
  4.0%, -36.3%, -5.8&4.6, 0.4%
Cc1ccc(NC(=O)COC(=O)Cn2c(C)csc2=O)c([N+](=O)[O-])c1
  4.3%, ., ., -6.3%
O=C(NCCC1CCCCN1S(=O)(=O)c1ccccc1)C(=O)Nc1ccccc1F (stereo not drawn)
  -0.3%, ., ., 6.3%
CC(NC(=O)c1ccc(F)cc1)c1ccc(F)cc1 (stereo not drawn)
  -0.9%, -2.0%, -5.1, -3.5%
CC1CCC(NC(=O)COC(=O)C2=NN(c3ccccc3)C(=O)CC2)CC1 (stereo not drawn)
  -0.6%, ., ., -0.3%
CCc1ccccc1NC(=O)CN1CCC(NC(=O)COC)CC1
  0.0%, 5.5%, -3.7, -6.5%
CCC(C)NS(=O)(=O)c1ccc(S(=O)(=O)N2CCCC3(CCCCC3)C2)cc1 (stereo not drawn)
  2.8%, 23.1%, -2.0, 26.0%
CCOC(=O)C1=C(CN2CCSCC2)NC(=O)NC1c1cccc([N+](=O)[O-])c1 (stereo not drawn)
  3.5%, -0.7%, -3.6, 17.0%
COc1ccc(CCNC(=O)CSc2nc3[nH]ncc3c(=O)[nH]2)cc1OC
  0.1%, 2.2%, -4.6, 0.2%
COc1ccc(N2CCN(C(=O)c3cc4c(-c5cccc(OC)c5)nn(C)c4s3)CC2)cc1
  1.1%, 2.1%, -5.7, 36.4%
CC1CCC2(CC1)NC(=O)N(Cc1cccc(C(F)(F)F)c1)C2=O (stereo not drawn)
  -1.8%, 1.7%, 0.0, 7.5%
O=C(N/N=C/c1ccccn1)C12CC3CC(CC(C3)C1)C2
  -1.3%, -8.6%, 5.0, -0.8%
COCCn1c(SC(C)C(=O)Nc2ccc(Cl)cn2)nnc1-c1ccncc1 (stereo not drawn)
  -0.1%, 1.8%, -1.8, 0.7%
COc1ccc(CCNC(=O)CSc2nc3ccccc3o2)cc1OC
  -4.2%, 8.7%, 12.9, 21.3%
CC(C)Cc1nc(C(N)=O)c2[nH]c(=O)n(-c3ccc(F)cc3)c2n1
  -2.8%, -1.7%, 22.7, 8.7%
CCCN(Cc1ccc(N(CC)CC)cc1)CC1CC1
  0.3%, -1.5%, 13.7, -1.8%
O=c1c(F)cn(C2CCCO2)c(=O)n1Cc1c(Cl)cccc1Cl (stereo not drawn)
  -0.4%, -1.0%, 4.5, -1.2%
COc1ccc(NC(=O)c2ccc(N(C)S(C)(=O)=O)cc2)cc1OC
  -0.1%, -16.3%, -1.8, 2.2%
Cc1cnc(C(=O)OCC(=O)NC2CCCCCCC2)cn1
  3.6%, -3.3%, 1.9, 23.9%
COc1cccc(NCc2cc3c(C(C)(C)C)nn(-c4ccccc4)c3[nH]c2=O)c1
  1.9%, 3.3%, -7.9, 0.8%
O=C(Nc1nccs1)c1ccc(Cl)s1
  2.8%, -37.8%, -11.3, -10.1%
CCc1ccc(Nc2nnc(SCC(=O)N(C)C3CCS(=O)(=O)C3)s2)cc1 (stereo not drawn)
  3.9%, -6.2%, -22.7, 6.0%
CCOC(=O)Cc1csc(NC(=O)C(C)c2ccc([N+](=O)[O-])cc2)n1 (stereo not drawn)
  -1.0%, 2.4%, -2.0, -5.6%
CCC(C)NC(=O)c1cc(S(=O)(=O)N2CCCCC2)c[nH]1 (stereo not drawn)
  -0.3%, 1.6%, ., -8.0%
Cc1nccn1CC(=O)N/N=C/c1cc(Br)cs1
  -2.4%, 0.5%, -0.9, -11.2%
Cc1cccc(-c2nnc(-c3cccc4ccccc34)o2)c1
  6.4%, ., ., -1.9%
O=C(CSc1nnc(-c2ccccc2)o1)N1CCc2ccccc2C1
  0.5%, -8.7%, -3.7, 11.6%
CC(=O)Nc1ccccc1OCc1nnc(-c2ccccc2Cl)o1
  -0.3%, -14.8%, ., 0.2%
COc1ccc(/C=C/C(=O)NCC(=O)N/N=C/c2cccs2)cc1
  -3.8%, -1.0%, ., -0.8%
CCOC(=O)c1c(NC(=O)CSc2nnnn2C)sc(C)c1-c1ccc(C)cc1
  0.6%, ?, -13.2, 0.9%
CC(NC(=O)C(=O)NN=C1CCCCCC1)c1ccccc1 (stereo not drawn)
  -1.2%, 0.1%, -3.0, 1.9%
Brc1cccc(Nc2nc(-c3cccnc3)cs2)c1
  4.3%, -37.1%, ., 12.3%
